# Ecoli growth: E. coli growth inhibition, primary screen, OD600 | 330,000 compounds, 0.21% hits | Escherichia coli growth, 23 h; hits give low values | OD600 absorbance (test concentration not listed) | AID 1053175, 2014;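 active = OD600 absorbance below the run mean of sample wells minus 3.6 SD, in any replicate, cut at about 0.56 in these data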;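 also: stock transfer was 300 nL into about 60 µL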
# HNF4A DNA FP: change in binding of human HNF4A to DNA, primary screen, biochemical, fluorescence polarization, FITC-DNA; AID 1224865, 2016; 360,000 compounds, 0.3% hits; 1 h; activity change, % at 10 µM; Hepatocyte nuclear factor 4-alpha (Homo sapiens), P41235; in the data active = activity change above about 30%, passing the limit was not always enough;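 also: controls were the assay level and a saturating level of protein; the project sought stronger binding though the title names inhibitors; some compounds called inactive have numbers as strong as hits; positive values seem to mean higher polarization but the record does not say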
# Target sequence (P41235 whole entry, looked up): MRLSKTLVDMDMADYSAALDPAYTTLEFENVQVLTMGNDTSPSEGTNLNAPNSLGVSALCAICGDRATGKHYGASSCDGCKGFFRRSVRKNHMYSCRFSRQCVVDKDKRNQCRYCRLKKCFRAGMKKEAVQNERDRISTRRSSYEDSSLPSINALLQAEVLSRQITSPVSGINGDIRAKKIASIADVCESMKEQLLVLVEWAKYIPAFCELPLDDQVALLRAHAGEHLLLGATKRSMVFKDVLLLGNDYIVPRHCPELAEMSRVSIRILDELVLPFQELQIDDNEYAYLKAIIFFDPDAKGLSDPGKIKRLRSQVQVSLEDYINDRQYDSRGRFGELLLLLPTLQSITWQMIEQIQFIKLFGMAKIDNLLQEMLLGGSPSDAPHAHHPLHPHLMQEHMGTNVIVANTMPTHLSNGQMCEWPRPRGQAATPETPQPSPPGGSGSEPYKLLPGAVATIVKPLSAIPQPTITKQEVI
# B2AR ag: beta2AR agonists driving receptor internalization, primary screen, cell-based, FAP fluorogen, flow cytometry | 340,000 compounds, 0.43% hits | AID 504454, 2011 | response, % (no concentration beside the values) | Beta-2 adrenergic receptor (Homo sapiens), P07550 | Am2.2-beta2AR cells; reference of the scale not given here;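 active = response above a set limit, near 3 SD of response in nonfluorescent compounds, cut at about 42% in these data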;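 also: stock transfer was 100 nL into about 11 µL; a reference agonist was the positive control; negative values mostly stem from fluorescent compounds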
# Target sequence (P07550 whole entry, looked up): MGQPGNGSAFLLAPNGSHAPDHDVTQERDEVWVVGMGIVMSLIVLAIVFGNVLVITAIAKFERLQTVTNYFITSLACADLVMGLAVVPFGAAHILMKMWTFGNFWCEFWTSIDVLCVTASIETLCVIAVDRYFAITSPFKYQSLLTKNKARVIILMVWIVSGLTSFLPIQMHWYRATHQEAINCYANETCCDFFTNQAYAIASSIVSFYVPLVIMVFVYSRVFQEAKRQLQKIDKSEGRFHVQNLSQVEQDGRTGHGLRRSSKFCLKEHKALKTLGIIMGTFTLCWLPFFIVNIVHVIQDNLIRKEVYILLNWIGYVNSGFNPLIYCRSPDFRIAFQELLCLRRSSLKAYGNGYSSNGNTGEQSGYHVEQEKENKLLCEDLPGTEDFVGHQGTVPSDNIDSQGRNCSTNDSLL
# UCH37 DUB inh: inhibitors of human UCH37 deubiquitinase, primary screen, biochemical, Ub-AMC cleavage, fluorescence. Ubiquitin carboxyl-terminal hydrolase isozyme L5 (Homo sapiens), Q9Y5K5. purified proteasome/UCH37. inhibition, % (concentration not given with the values). 330,000 compounds, 0.33% hits;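 active = mean of two replicates above 20%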;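 also: 0% = compound-free wells with enzyme and 100% = wells lacking proteasome; stock transfer was 100 nL into about 20 µL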
#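 system = Proteasome-associated human UCH37 deubiquitinase | amount = 0.15 nM proteasome as dispensed | medium = pH 7.4 Tris-HCl (50 mM) with ovalbumin, ATP-MgCl2, DTT | incubation = 30 min preincubation with enzyme, 25 min cleavage at room temperature | detection = AMC fluorescence 355/460 nm | read-out basis = percent inhibition | controls = no-proteasome and no-compound wells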
# FGF22 binding: binders of human FGF22 protein, primary screen, FGF22 synaptogenesis inhibitor project, biophysical, thermal shift, single point; Fibroblast growth factor 22 (Homo sapiens), Q9HCT0; recombinant FGF22 thermal shift, SYPRO orange fluorescence; percent of sucrose octasulfate shift, DMSO zero; calls only at 9.99 µM; 340,000 compounds, 1.5% hits; AID 651658, 2012;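 active = melting point raised past a set limit in the mean and every replicate; three in four hits are not shown here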
# Target sequence (Q9HCT0 whole entry, looked up): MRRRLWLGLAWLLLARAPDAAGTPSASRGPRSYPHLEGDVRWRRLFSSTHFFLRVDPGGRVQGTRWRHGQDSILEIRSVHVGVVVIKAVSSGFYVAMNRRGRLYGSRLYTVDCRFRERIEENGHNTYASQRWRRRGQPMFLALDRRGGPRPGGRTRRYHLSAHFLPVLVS
# LANA-H2B inh: blockers of LANA interaction with H2A/H2B – biochemical, FP readout, HTS, primary screen; Protein LANA1 (Human herpesvirus 8 type P (isolate GK18)), Q9QR71; cell-free LANA-H2A/H2B peptide, fluorescence polarization; inhibition, % (test concentration not listed); 320,000 compounds, 0.6% hits; AID 2629, 2010; in the data active = inhibition mostly above about 10%, no sharp cut-off; inactive = mostly below about 6.7%;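 also: stock transfer was 7.5 nL into about 10 µL; 0% = median of vehicle wells and 100% = median of positive control wells; one replicate is shown; the record names a cut of 25% in any replicate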
# ALR H2O2 inh: inhibitors of human ALR sulfhydryl oxidase, primary screen, biochemical, H2O2 detection, HRP-luminol luminescence, single point | FAD-linked sulfhydryl oxidase ALR (Homo sapiens), P55789 | purified ALR, DTT oxidation | inhibition, % (concentration not given with the values) | 290,000 compounds, 3.8% hits;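 active = mean and each replicate at 75% or more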;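 also: stock transfer was 7.5 nL into about 7.5 µL; 0% = neutral wells and 100% = wells with inactivated enzyme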
# * = called active by the depositor; i = inactive; / = not tested or not shown; + = active, no number. This is a subset, so the mix of outcomes need not match the whole.
SMILES,Ecoli growth,HNF4A DNA FP,B2AR ag,UCH37 DUB inh,FGF22 binding,LANA-H2B inh,ALR H2O2 inh
CC(NC(=O)c1c(Cl)cnn1C)C1CCCO1 (stereo unspecified),0.69,1.4,-4,0.2,i,-0.3,-6
COc1ccc(-c2nnc(SCC(N)=O)n2N)cc1,0.72,-1.5,-1,0.5,/,1.2,-19
CC1CCCN(C(=O)c2cc(N3C(=O)C4C5CCC(C5)C4C3=O)ccc2Cl)C1 (stereo unspecified),0.72,/,/,2.9,/,1.9,-6
CCn1cc(Cl)c(C(=O)NNC(=O)CCn2ccc([N+](=O)[O-])n2)n1,0.71,0.6,-1,5.3,i,6.2,-1
O=C(CSc1nc2ccccc2c(=O)n1-c1ccc(F)cc1F)c1c[nH]c2ccccc12,0.72,-1.6,45*,1.9,/,-1.4,-6
O=C(Nc1nnc(SCc2ccccc2)s1)c1ccco1,0.73,2.0,5,2.4,/,2.3,-15
Cc1cccnc1NC(=O)c1cccc(S(=O)(=O)N2CCCC2)c1,0.71,2.8,2,1.4,i,-4.7,3
O=C(O)CSc1nnc(-c2ccncc2)n1C1CCCCC1,0.68,-4.1,2,2.9,/,-1.0,-18
CCc1ccc(-c2cn(C3CCCCC3)c(=S)[nH]2)cc1,0.71,0.5,-4,3.7,i,-2.1,97*
O=C(O)/C=C/C(=O)Nc1ccc(NC(=O)c2ccccc2)c(Cl)c1,/,-0.9,8,2.8,i,0.8,9
CCN(CC)CCCn1c(=S)[nH]c2cc(C(=O)OC)ccc2c1=O,0.66,0.9,-12,-8.3,/,7.7,51
CCOc1nc(C)cc(C)c1S(=O)(=O)c1cccc(Cl)c1,0.68,-3.1,0,4.8,i,-7.8,-1
O=C1ON=C(c2ccccc2)/C1=C/c1ccc(OS(=O)(=O)c2ccccc2)cc1,0.66,-6.3,2,-2.6,i,121*,8
O=C(Cc1cn2ccsc2n1)NCCc1ccc(F)cc1,0.75,-0.9,1,-4.8,/,4.2,-7
COc1ccccc1C(=O)NC(=S)Nc1ccc(S(=O)(=O)N2CCN(C)CC2)cc1,0.73,2.2,-4,5.1,i,1.5,/
Cc1onc(-c2ccccc2Cl)c1C(=O)Nc1nn[nH]n1,0.63,0.7,2,-0.3,i,1.1,1
Cc1cc(C)c2nc(NC(=O)c3ccco3)sc2c1,0.68,0.6,-14,-46,i,2.4,-2
CC(NC(=O)COC(=O)CSCc1ccccc1)c1ccccc1 (stereo unspecified),0.71,2.2,0,2.7,i,0.3,/
CCCCn1nc(C(=O)NCC(=O)Nc2c(C)cccc2C)c2ccccc2c1=O,0.67,1.7,6,4.3,i,+,-4
COC(=O)C(NS(=O)(=O)c1ccc(N2CCCC2=O)cc1)c1ccccc1 (stereo unspecified),0.63,3.2,3,0.4,i,5.1,-24
Cn1c(=O)[nH]c2c(nc(-c3ccc(Cl)cc3)n2C)c1=O,0.66,-7.4,-4,-83,i,3.4,-17
CCOC(=O)C1=C(CSc2nc3c(cc2C#N)CN(C)CC3)OC(N)=C(C#N)C1c1ccncc1 (stereo unspecified),0.71,-27,-1,-14,/,12,-5
O=C(Nc1cccc(-c2nc3ncccc3o2)c1)c1ccco1,0.72,-2.2,-24,0.8,/,2.8,20
c1nc(CCO[C@H]2CCCCO2)cc2cc3c(cc12)OCO3,/,-3.4,1,0.9,i,3.5,2
CCCN(CCC)CCNS(=O)(=O)c1ccc2c(c1)CCN2C(=O)C1CCC1,0.66,0.9,-8,0.9,/,-2.9,-2
Nn1c(SCc2ccc(Br)cc2)nnc1-c1ccncc1,0.65,6.2,8,3.5,i,4.3,1
CN(C)S(=O)(=O)c1cccc(C(=O)Nc2ccccc2N2CCCCC2)c1,0.67,0.6,-25,3.3,i,-0.2,-1
COc1ccc(CCN2CC(C(=O)OCC(=O)Nc3c(C)nn(-c4ccccc4)c3C)CC2=O)cc1OC (stereo unspecified),0.63,-3.4,-2,3.5,i,0.1,-2
Cc1ccc(O)c(C(=O)c2cc(C#N)c(=O)n(C(C)c3ccccc3)c2)c1 (stereo unspecified),0.69,-0.7,2,6.3,i,-2.3,-61
CCN(c1ccccc1)S(=O)(=O)c1cccc(C(=O)NCCN2CCOCC2)c1,0.66,0.1,3,0.1,i,-2.0,-6

# The final four records of the section above are carried over, then new ones follow:
SMILES,Ecoli growth,HNF4A DNA FP,B2AR ag,UCH37 DUB inh,FGF22 binding,LANA-H2B inh,ALR H2O2 inh
CN(C)S(=O)(=O)c1cccc(C(=O)Nc2ccccc2N2CCCCC2)c1,0.67,0.6,-25,3.3,i,-0.2,-1
COc1ccc(CCN2CC(C(=O)OCC(=O)Nc3c(C)nn(-c4ccccc4)c3C)CC2=O)cc1OC (stereo unspecified),0.63,-3.4,-2,3.5,i,0.1,-2
Cc1ccc(O)c(C(=O)c2cc(C#N)c(=O)n(C(C)c3ccccc3)c2)c1 (stereo unspecified),0.69,-0.7,2,6.3,i,-2.3,-61
CCN(c1ccccc1)S(=O)(=O)c1cccc(C(=O)NCCN2CCOCC2)c1,0.66,0.1,3,0.1,i,-2.0,-6
COc1cccc(Nc2ccc(C(=O)O)cc2N)c1,0.68,2.6,6,-23,i,4.7,99*
Cc1nn2c(-n3ccnc3C)c3c(nc2c1-c1ccccc1)CCC3,0.67,-0.7,-23,5.2,/,-2.2,2
Cc1cccc(C(C)C)c1NC(=O)c1ccc(CN(c2ccccc2)S(=O)(=O)c2ccccc2)cc1,0.71,1.7,1,2.0,/,-2.5,-3
Cc1nnc(SCC(=O)NNC(=O)c2ccccc2)n1Cc1ccccc1,0.73,-1.7,-1,4.8,i,0.8,-2
O=C(O)c1ccc2c3c(cccc13)C(=O)N(c1ccccc1)C2=O,0.68,-26,1,9.8,i,3.2,-18
COc1cc(C(=O)Nc2ccc(S(=O)(=O)Nc3cc(C)on3)cc2)cc(OC)c1OC,0.73,2.0,5,2.2,/,4.3,0
Cc1csc(C(=O)O)c1NC(=O)c1c(Cl)cccc1Cl,0.7,-0.8,-2,1.7,i,3.6,-6
OC(CCN1CCOCC1)(c1ccc(Cl)cc1)C1CCCCC1 (stereo unspecified),0.76,-1.1,0,-0.9,/,3.7,-32
CC(C)c1nc(Cl)c(C#N)c2c1CCCC2,0.73,-1.7,2,0.2,i,6.5,-7
Cc1nn2c(N)c(C#N)cnc2c1-c1ccccc1,0.69,1.6,2,2.3,/,1.6,-8
CC1CC(=O)c2c(cc3c(-c4c(O)cc(O)c5c(O)c6c(cc45)OC(C)CC6=O)c(O)cc(O)c3c2O)O1 (stereo unspecified),0.75,-39,-3,22*,/,3.6,51
Cc1ccc2c(c1)COc1c3ccc(C(=O)N[C@@H](CO)C(C)C)cc3nn1-2,/,-0.2,4,-18,i,0.7,5
CCOC(=O)c1cc(C#N)c(Oc2ccc(F)cc2)nc1-c1ccccc1,0.79,-0.1,2,0.0,/,-1.0,-17
CC(CNC(=O)COC(=O)c1ccco1)c1ccccc1 (stereo unspecified),0.72,-0.2,-6,2.2,i,4.5,1
CCOc1ccc(-c2ccc(SC)nn2)cc1,0.69,1.6,0,2.8,i,0.3,8
O=c1[nH]c(N2CCOCC2)cc2ccccc12,0.64,-0.4,-6,-108,i,-7.4,-2
Cc1cc(NC(=O)c2cc(C3CC3)on2)no1,0.72,1.2,3,1.9,i,-2.8,4
COC(=O)C1=C(C(=O)OC)[C@@H]2N(C)c3ccccc3[C@@]23C[C@@H](C(=O)OC)N=C3N1,/,5.9,-8,1.3,i,3.9,11
Cc1cc(NC(=O)Nc2ccc(Cl)cc2)n(-c2ccccc2)n1,0.66,-2.8,-3,5.4,i,-0.7,1
O=C1Nc2ccccc2O/C1=C\c1ccccc1Br,0.71,0.5,-7,-129,i,-4.8,-23
C=CCC[C@H](Cc1ccc(F)cc1)C(=O)OC[C@@H](Cc1c[nH]c2ccccc12)NC(=O)[C@@H](CC=C)CC(=O)N[C@@H](CO)Cc1ccccc1,/,-1.0,5,-1.2,i,-4.9,0
CCN1C(=O)C(CC(=O)Nc2ccc(C)cc2C)Nc2cc(S(=O)(=O)N(C)C)ccc21 (stereo unspecified),0.7,1.9,2,-2.2,i,-4.2,-9
CC(C)(C)OC(=O)NC1CC2CCCC(C1)N2Cc1ccccc1 (stereo unspecified),0.67,-0.1,-1,1.6,i,/,/
O=C1c2ccccc2C(=O)N1CCSc1nncs1,0.66,-4.5,4,1.2,/,4.6,0
Cc1cc([N+](=O)[O-])c(=O)[nH]c1C,/,1.5,4,/,i,/,/
O=C(c1ccco1)N1CCc2[nH]nc(-c3ccccc3)c2C1,0.67,-0.9,3,4.2,i,-1.0,-2
CC(=O)Nc1nc(-c2ccc([N+](=O)[O-])cc2)cs1,0.67,-1.0,12,6.7,i,-3.7,-12
COC(=O)CNC(=O)CSc1nnc2cc(C)c3ccccc3n12,0.7,2.3,-1,1.1,i,-13,-23
Cc1n[nH]c(=O)nc1Nc1ccc(O)cc1,0.73,3.5,3,2.1,i,-2.2,89*
Cc1ccc(C(=O)Nc2nc(N)n(-c3ccccc3)n2)cc1,0.67,-0.2,-6,1.5,i,-0.5,-1
COc1cccc(CNc2nnnn2C)c1OC,0.67,-1.3,-2,1.9,i,3.4,-4
CCOc1ccc(NC(=O)CN2C(=O)COc3ccccc32)cc1,0.71,-1.5,7,4.4,i,-17,-4
Cc1cccc(OCCCC(=O)NCc2ccco2)c1,0.71,-2.0,8,2.1,/,6.0,49
Cc1ccnc(NC(=O)c2ccc(COc3c(F)c(F)cc(F)c3F)o2)c1,0.68,-0.3,6,0.7,i,-0.8,12
COc1cc(NC(=O)c2cc([N+](=O)[O-])ccc2NC(=O)CNCc2ccccn2)cc(OC)c1,0.66,-1.8,21,6.9,i,-2.9,/
COc1cccc(N=Nc2c(=O)[nH]n3c(=O)cc(C)[nH]c23)c1,0.69,1.4,-2,9.3,/,3.2,8
Cc1c(S(=O)(=O)N2CC(C)CC(C)C2)c(=O)n(C)c(=O)n1C (stereo unspecified),0.7,-4.0,-1,4.3,i,3.2,1
CC(=O)Oc1ccc(-c2ccc(C(=O)Nc3cccc(S(=O)(=O)N4CCOCC4)c3)cc2)cc1,0.68,0.0,15,1.6,i,-2.4,-5
CCN(CCCNC(=O)CNC(=O)c1nn(-c2ccc(OC)cc2OC)c(=O)c2ccccc12)c1cccc(C)c1,0.67,0.4,-2,4.2,i,1.9,-12
CCN(C(=O)CSc1nnc(C)n1-c1ccc(C)cc1)c1c(N)n(Cc2ccccc2)c(=O)[nH]c1=O,0.65,2.2,-4,4.3,i,/,/
O=C(c1cc2c(s1)CCCC2)N1CCN(Cc2ccc3c(c2)OCO3)CC1,0.63,-1.2,-1,1.8,/,-0.5,-8
O=C(NCc1ccccc1)c1cccc(F)c1F,0.67,0.2,-3,2.9,i,-1.7,-12
OC1(c2cccs2)CN(c2ccc(Br)cc2)C2=[N+]1CCCS2 (stereo unspecified),0.62,0.5,-2,5.0,i,-5.8,-10
Cc1cc(=O)oc2cc(OC(C)C(=O)NC3CCN(Cc4ccccc4)CC3)ccc12 (stereo unspecified),0.72,4.6,1,-10,i,-1.8,-25
COc1ccc(CNC(=O)CN(C)S(=O)(=O)c2ccc(Br)s2)cc1,0.7,3.1,-10,-0.7,i,3.9,-5
Cc1ccc(S(=O)(=O)N2CCOCC2)cc1NC(=O)COC(=O)c1ccc(Br)o1,0.71,-2.6,-10,4.4,i,/,/
